Source: PubChem (Broad Institute)
Hedgehog inh: Sonic Hedgehog pathway inhibition; Shh-LIGHT2 Gli-luciferase reporter, 30 h; inhibition, % (concentration not given with the values); actives 2.1% (n = 22,000); AID 2313;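 active means replicate mean of 65% or more; inconclusive means mean lower but half the replicates past it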;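 further: pathway switched on by Shh-conditioned medium diluted 1 in 25 in low serum; 100 nL library stock added to about 40 µL; 0% = median of neutral wells and 100% = positive control level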
MITF inhib: inhibitors of MITF. TRPM1 promoter luciferase, luminescence, 24 h. inhibition, % (concentration not given with the values). actives 0.28% (n = 37,000). AID 2240;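 active means most replicates at 85% or more, or half of them and the mean; inconclusive means half reach 85% but not the mean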;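 further: human melanocyte line stably carrying TRPM1 promoter luciferase reporter; 0% = vehicle wells and 100% = a positive control; the first replicate is given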
YB-1 expr inh: YB-1 expression inhibition. U2OS, qRT-PCR YB-1 vs CDIP delta delta Cp, 16 h; stronger effect = higher value; zero = DMSO, each unit about twofold. delta delta Cp (YB-1 minus CDIP) (concentration not given with the values). actives 0.37% (n = 30,000);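 active means delta delta Cp rounded down to an integer at or above 3, about 3 SD of DMSO wells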;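 further: higher means less YB-1 transcript or more CDIP transcript relative to DMSO; stock transfer was 100 nL into about 100 µL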
PD-1 reverse act: activators reversing PD-1 mediated T-cell inhibition. 29,000 tested, under 10 active. primary human CD4 T cells, PD-L1 beads, CellTiter-Glo 96 h. activation, % (no concentration beside the values). AID 2316;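 active means replicate mean of 50% or more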;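 further: 0% = median vehicle wells and 100% = positive control; 100 nL library stock added to about 50 µL; numbers are from one replicate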
* marks the source's active call; other numbers are inactive results; ? = inconclusive; . = no result given.

Start of the listing, in advance, three compounds:
Order of values – Hedgehog inh	MITF inhib	YB-1 expr inh	PD-1 reverse act
1: C[C@@H]1CCCCO[C@H](CN(C)C(=O)c2ccccc2)[C@@H](C)CN([C@H](C)CO)C(=O)c2cc(NC(=O)Cc3ccccc3)ccc2O1
 : -47	-4	0.56	-0.6
2: COc1ccc(NC(=O)Nc2ccc3c(c2)C(=O)N([C@H](C)CO)C[C@@H](C)[C@@H](CN(C)C(=O)NC(C)C)O3)cc1
 : .	-4	0.79	0.6
3: COc1ccc(CN(C)C[C@H]2Oc3c(NS(=O)(=O)c4c(C)noc4C)cccc3C(=O)N([C@H](C)CO)C[C@H]2C)cc1
 : 6	-8	-0.61	.

The list itself (from the top)
Order of values – Hedgehog inh	MITF inhib	YB-1 expr inh	PD-1 reverse act
1: C[C@@H]1CCCCO[C@H](CN(C)C(=O)c2ccccc2)[C@@H](C)CN([C@H](C)CO)C(=O)c2cc(NC(=O)Cc3ccccc3)ccc2O1
 : -47	-4	0.56	-0.6
2: COc1ccc(NC(=O)Nc2ccc3c(c2)C(=O)N([C@H](C)CO)C[C@@H](C)[C@@H](CN(C)C(=O)NC(C)C)O3)cc1
 : .	-4	0.79	0.6
3: COc1ccc(CN(C)C[C@H]2Oc3c(NS(=O)(=O)c4c(C)noc4C)cccc3C(=O)N([C@H](C)CO)C[C@H]2C)cc1
 : 6	-8	-0.61	.
4: COc1ccc(NC(=O)Nc2ccc3c(c2)C(=O)N([C@H](C)CO)C[C@H](C)[C@H](CN(C)Cc2ccncc2)OCCCC[C@@H](C)O3)cc1
 : -6	-6	-0.025	0.2
5: CNC[C@@H]1Oc2ccc(NC(=O)Nc3c(C)noc3C)cc2CC(=O)N([C@H](C)CO)C[C@H]1C
 : -5	-16	-0.24	.
6: CCCCC/C=C\C/C=C\C/C=C\C/C=C\CCCCCC(=O)O
 : -10	-6	-0.062	.
7: COc1ccc(S(=O)(=O)Nc2cccc3c2O[C@H](CN(C)C(=O)Nc2ccc4c(c2)OCO4)[C@H](C)CN([C@@H](C)CO)C3=O)cc1
 : 9	-11	0.26	1.4
8: COc1ccc(NC(=O)N(C)C[C@H]2Oc3c(NS(=O)(=O)c4ccc(Cl)cc4)cccc3C(=O)N([C@@H](C)CO)C[C@H]2C)cc1
 : 4	12	0.62	-1.8
9: C=CCn1c(SCC(N)=O)nnc1-c1cc(Br)ccc1O
 : .	4	.	1.6
10: C[C@H]1CN([C@@H](C)CO)C(=O)c2cccc(NC(=O)Nc3ccccc3)c2O[C@H]1CN(C)Cc1ccccc1
 : -23	10	-0.1	1.3
11: C[C@H]1CN([C@@H](C)CO)C(=O)c2cc(NC(=O)Cc3cn(C)c4ccccc34)ccc2O[C@H]1CN(C)C(=O)NC1CCCCC1
 : .	24	-0.42	-0.3
12: O=C(O)C1C2C=CC(O2)C1C(=O)Nc1ccc(S(=O)(=O)N2CCc3ccccc32)cc1 (stereo not given)
 : .	-4	.	-1.0
13: C[C@@H]1CN([C@H](C)CO)C(=O)c2cc(NC(=O)C3CCCCC3)ccc2O[C@@H]1CN(C)Cc1ccc(C(=O)O)cc1
 : -42	1	-0.062	.
14: C[C@@H]1CN([C@@H](C)CO)C(=O)c2cccc(NS(=O)(=O)c3ccccc3)c2O[C@@H]1CN(C)Cc1ccc(C(F)(F)F)cc1
 : -10	-19	0.58	-1.9
15: C[C@H](CO)N1C[C@H](C)[C@@H](CN(C)Cc2ccc(C(F)(F)F)cc2)Oc2ccc(NC(=O)Nc3cccc4ccccc34)cc2C1=O
 : .	14	0.19	-1.8
16: Cc1nnc(NC(C)C)s1
 : 1	8	-0.53	0.6
17: C[C@@H]1CN([C@@H](C)CO)C(=O)c2cc(NC(=O)CCN3CCOCC3)ccc2O[C@@H]1CN(C)Cc1ccc(C(=O)O)cc1
 : 3	-3	-0.09	1.2
18: Oc1c(C(Nc2cccc(Cl)c2)c2cccnc2)ccc2cccnc12 (stereo not given)
 : 75*	37	-0.15	-3.8
19: Cc1noc(C)c1NC(=O)Nc1cccc2c1O[C@H](CN(C)S(C)(=O)=O)[C@H](C)CN([C@@H](C)CO)C2=O
 : -41	-9	0.14	1.8
20: C[C@H]1CN([C@@H](C)CO)C(=O)Cc2cc(NC(=O)Nc3ccc4c(c3)OCO4)ccc2O[C@H]1CN(C)Cc1ccc(Oc2ccccc2)cc1
 : .	-6	-0.095	1.5
21: CNC[C@@H]1Oc2c(NS(=O)(=O)c3ccc(OC)cc3)cccc2C(=O)N([C@@H](C)CO)C[C@H]1C
 : -15	10	-0.29	.
22: OCc1nc(-c2cc(C(F)(F)F)cc(C(F)(F)F)c2)cs1
 : 11	-7	-0.27	-1.9
23: COc1ccc(CN(C)C[C@H]2Oc3ccc(NS(=O)(=O)c4ccc(Cl)cc4)cc3CC(=O)N([C@H](C)CO)C[C@H]2C)cc1
 : 9	6	-0.24	.
24: CCCC(O)c1ccc(C)cc1CCCCCC(=O)O (stereo not given)
 : -20	6	-0.33	2.1
25: COc1ccc(S(=O)(=O)N(C)C[C@H]2Oc3ccc(NC(=O)NC4CCCCC4)cc3C(=O)N([C@@H](C)CO)C[C@@H]2C)cc1
 : .	1	-0.57	4.2
26: Cc1nnc(SCC(=O)Nc2cc(Cl)c(Cl)cc2Cl)s1
 : .	3	.	1.3
27: CC(C)(C)OC(=O)N1Cc2ccccc2C[C@H]1C(=O)NCCN1CCOCC1
 : 9	15	-0.21	0.1
28: COc1ccc(S(=O)(=O)N(C)C[C@H]2Oc3ccc(NC(=O)Nc4ccccc4)cc3CC(=O)N([C@@H](C)CO)C[C@@H]2C)cc1
 : .	-4	0.31	-0.7
29: COc1ccc(CN(C)C[C@@H]2Oc3ccc(NC(=O)Nc4ccc5c(c4)OCO5)cc3C(=O)N([C@@H](C)CO)C[C@@H]2C)cc1
 : 6	-6	-0.17	-0.4
30: C[C@H]1CN([C@@H](C)CO)C(=O)Cc2cc(NS(=O)(=O)c3ccc(Cl)cc3)ccc2O[C@H]1CN(C)Cc1ccc(C(=O)O)cc1
 : -31	-17	-0.15	.
31: COc1ccc(NC(=O)N(C)C[C@@H]2Oc3ccc(NC(=O)NC(C)C)cc3C(=O)N([C@H](C)CO)C[C@@H]2C)cc1
 : -3	-6	0.098	-0.9
32: COc1ccc(NC(=O)Nc2ccc3c(c2)C(=O)N([C@H](C)CO)C[C@H](C)[C@@H](CN(C)S(C)(=O)=O)OCCCC[C@@H](C)O3)cc1
 : -13	9	-0.00036	0.5
33: CC1C(O)C(N(C)C)CC2COCC21 (stereo not given)
 : -18	-12	-0.24	1.0
34: C[C@@H]1CN([C@H](C)CO)C(=O)c2cc(NS(C)(=O)=O)ccc2O[C@@H]1CN(C)Cc1ccc2c(c1)OCO2
 : -30	2	0.076	1.6
35: Cc1noc(C)c1S(=O)(=O)Nc1ccc2c(c1)CC(=O)N([C@H](C)CO)C[C@@H](C)[C@H](CN(C)C(=O)NC(C)C)O2
 : .	-14	-0.22	.
36: O=C(Nc1ccccc1)OC1CCCC1
 : .	-9	-1	0.1
37: CCN(c1nc(C)cc(OC)n1)S(=O)(=O)c1ccc(C)cc1
 : 17	0	-0.43	0.1
38: Cc1noc(C)c1S(=O)(=O)Nc1ccc2c(c1)C(=O)N([C@H](C)CO)C[C@@H](C)[C@H](CN(C)C(=O)NC1CCCCC1)O2
 : .	-3	-0.36	-3.1
39: Cc1ccc(S(=O)(=O)N(C)C[C@@H]2Oc3ccc(NC(=O)NC(C)C)cc3CC(=O)N([C@H](C)CO)C[C@@H]2C)cc1
 : 20	0	0.15	0.9
40: C[C@@H]1CN([C@@H](C)CO)C(=O)c2cccc(NC(=O)NC3CCCCC3)c2O[C@H]1CN(C)C(=O)Nc1ccc2c(c1)OCO2
 : -10	5	-0.004	-0.8
41: C[C@@H]1CCCCO[C@@H](CN(C)Cc2ccc(Cl)c(Cl)c2)[C@@H](C)CN([C@H](C)CO)C(=O)c2cc(NC(=O)CCCN(C)C)ccc2O1
 : -20	-3	-0.84	.
42: COc1ccc(NC(=O)Nc2ccc3c(c2)CC(=O)N([C@H](C)CO)C[C@@H](C)[C@H](CN(C)Cc2ccc(Cl)c(Cl)c2)O3)cc1
 : 0	23	0.14	.
43: COc1ccc(N(CC(=O)Nc2ccc(Br)c(Cl)c2)S(C)(=O)=O)cc1Cl
 : .	7	.	-0.1
44: CNC[C@H]1Oc2ccc(NS(=O)(=O)c3c(C)noc3C)cc2C(=O)N([C@H](C)CO)C[C@H]1C
 : -13	-6	-0.12	-0.1
45: C[C@@H]1CN([C@@H](C)CO)C(=O)Cc2cc(NC(=O)Nc3ccc(C(F)(F)F)cc3)ccc2O[C@@H]1CN(C)Cc1ccc(C(=O)Nc2ccccc2N)cc1
 : .	21	-0.26	-3.0
46: CSc1sc(-c2[nH]ncc2Br)c2c1C(=O)CC(C)(C)C2
 : 8	15	-0.11	-0.7
47: C[C@H]1CN([C@@H](C)CO)C(=O)c2cc(NS(=O)(=O)c3ccc(F)cc3)ccc2O[C@H]1CN(C)CC1CCCCC1
 : 14	1	-0.16	0.3
48: C[C@H](CO)N1C[C@H](C)[C@@H](CN(C)Cc2ccc(C(F)(F)F)cc2)Oc2ccc(NC(=O)NC3CCCCC3)cc2C1=O
 : .	17	0.074	-2.9
49: Cc1cc(Br)c(NC(=O)CSc2nnc(N)s2)cc1C
 : .	-35	.	0.7
50: COc1ccc(CN(C)C[C@H]2Oc3c(NS(=O)(=O)c4ccc(OC)cc4)cccc3C(=O)N([C@@H](C)CO)C[C@@H]2C)cc1
 : -19	-11	-0.18	.

(next part)
Order of values – Hedgehog inh	MITF inhib	YB-1 expr inh	PD-1 reverse act
51: Cc1noc(C)c1S(=O)(=O)Nc1cccc2c1O[C@@H](CN(C)Cc1ccc(-c3ccccc3)cc1)[C@@H](C)CN([C@@H](C)CO)C2=O
 : 24	-6	0.16	1.1
52: O=c1c2cn[nH]c2nc(SCc2ccc3c(c2)OCCO3)n1-c1ccccc1
 : .	80	.	-4.1
53: Cc1nnc(SCC(=O)Nc2cc(C(F)(F)F)ccc2N2CCOCC2)o1
 : .	-21	.	-2.1
54: COc1ccccc1NC(=O)Cn1nc(-c2cccc([N+](=O)[O-])c2)c2ccccc2c1=O
 : .	-13	.	-2.6
55: Cc1ccc(NS(=O)(=O)c2cc(C(=O)Nc3ccccc3C(=O)N3CCOCC3)ccc2Cl)c(C)c1
 : .	6	.	1.7
56: C[C@@H]1CN([C@@H](C)CO)C(=O)c2cccc(NC(=O)NC3CCCCC3)c2O[C@@H]1CN(C)Cc1ccc2c(c1)OCO2
 : -44	-1	-0.084	0.4
57: C[C@@H]1CN([C@H](C)CO)C(=O)c2cccc(NS(=O)(=O)c3ccc(F)cc3)c2O[C@@H]1CN(C)C(=O)Nc1ccccc1
 : -12	-4	-0.4	1.5
58: COc1ccc(S(=O)(=O)Nc2ccc3c(c2)C(=O)N([C@@H](C)CO)C[C@H](C)[C@H](CN(C)Cc2ccc4c(c2)OCO4)O3)cc1
 : .	3	0.22	3.2
59: CCN(CC)C(=O)c1sc(NC(=S)Nc2cnccn2)c(C(=O)OC)c1C
 : .	5	.	0.6
60: O=C(C[n+]1ccc(/C=N/O)cc1)NC1CCCCC1
 : -1	-9	-0.092	0.8
61: CC(C)(C)c1ccc(S(=O)(=O)NCCC(=O)O)cc1
 : .	-2	.	-1.1
62: CC(C)NC(=O)N(C)C[C@@H]1Oc2c(NC(=O)c3nc4ccccc4s3)cccc2C(=O)N([C@H](C)CO)C[C@@H]1C
 : 6	-25	0.25	-0.7
63: C[C@H]1CN([C@@H](C)CO)C(=O)Cc2cc(N(C)C)ccc2O[C@@H]1CN(C)CC1CC1
 : ?	-5	-0.73	.
64: Cc1ccc(S(=O)(=O)N(C)C[C@H]2Oc3ccc(NS(=O)(=O)c4ccc(Cl)cc4)cc3C(=O)N([C@@H](C)CO)C[C@@H]2C)cc1
 : .	1	-0.23	-1.0
65: CN1C(C(=O)c2ccccc2)C(=O)c2ccccc2S1(=O)=O (stereo not given)
 : -11	19	0.044	-0.7
66: CNC[C@@H]1Oc2ccc(NC(=O)CCC(F)(F)F)cc2C(=O)N([C@@H](C)CO)C[C@@H]1C
 : -22	-3	0.28	0.3
67: C[C@H]1CN([C@@H](C)CO)C(=O)c2cc(NC(=O)C3CC3)ccc2O[C@H]1CN(C)Cc1ccccc1
 : .	-13	-0.25	-0.6
68: COc1ccccc1NC(=O)CSc1ncn(-c2ccccc2)n1
 : .	1	.	0.1
69: CC1CN(C2=NC(=O)/C(=C/c3ccccc3)S2)CC(C)O1 (stereo not given)
 : 13	9	0.56	0.0
70: O=C1SC(=S)N/C1=C/c1cccc(O)c1
 : 2	-10	0.4	2.7
71: COc1ccc(NC(=O)N(C)C[C@H]2Oc3c(NS(=O)(=O)c4c(C)noc4C)cccc3C(=O)N([C@@H](C)CO)C[C@H]2C)cc1
 : -2	-12	0.14	-0.2
72: Cc1sc2c(c1C)C(=O)C(C(=O)Nc1ccc(Cl)cc1)S(=O)(=O)N2C (stereo not given)
 : 21	-8	0.059	-2.8

These rows are one share of the data; rates above refer to the full screens.
